TRPML1 inh: qHTS for Inhibitors of the Human Mucolipin Transient Receptor Potential 1 (TRPML1); 390,000 compounds, 0.02% hits; Mucolipin-1 (Homo sapiens), Q9GZU1; TRPML1-inducible cells, Ca2+ dye fluorescence, FDSS; active compounds read low; inhibition of EC80 agonist-evoked calcium signal; activity change, negative = inhibition, % (no concentration beside the values); in the data active means activity change below about -50%; inconclusive means about -30% to -50%; inactive means above about -30%;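 further: stimulus is agonist 54-4 at its EC80 concentration; on the % scale 0 is the no-effect control and ±100 the full control effect; compound concentration not given in the record; the text of the record puts the active cut at -80%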
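Tet-induced TRPML1-DL cells loaded with Ca8 no-wash calcium dye were read kinetically on FDSS. Compound addition was followed by EC80 agonist 54-4 (4 uM final); inhibition was read over 110 s.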
Sfp inh: qHTS Assay for Inhibitors of Bacillus subtilis Sfp phosphopantetheinyl transferase (PPTase). AID 1490, 2009. 310,000 compounds, 3.5% hits. Potency, µM, inactives show max response, negative = inhibition, hits mostly inhibitors. Biochemical Sfp PPTase activity, qHTS. 4'-phosphopantetheinyl transferase ffp (Bacillus subtilis), Q9F4F7; active means well fitted inhibition curve with a large enough effect; inconclusive means small, poorly fitted or top-dose-only effect, or another doubt; inactive means no such curve, though single readings can be large or run the other way;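 further: the enzyme is Sfp with the accession as filed and its product quenches rhodamine fluorescence; potency means the concentration at half of the fitted maximal effect; 0% = enzyme reaction without inhibitor and -100% = no enzyme wells; top concentration of the series not given in the record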
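Fluorescence-quenching assay with 15 nM Sfp, 5 uM rhodamine-CoA and 12.5 uM BHQ-2-labelled ybbR peptide in pH 7.6 Hepes/MgCl2 buffer. Enzyme was pre-incubated with compound for 15 min at room temperature. Rate was taken from the 30-min fluorescence change (525/598 nm).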
gsp antag: qHTS for Antagonists of gsp, the Etiologic Mutation Responsible for Fibrous Dysplasia/McCune-Albright Syndrome: qHTS. 340,000 compounds, 0.4% hits. gsp-mutant cells, cAMP HTRF, 30 min; control for the full effect not named in the record. AID 624288, 2012. Potency, µM (doses to about 76.9 µM), for inactives: at the highest dose activity change, negative = inhibition, hits mostly inhibitors; active = falling curve of any shape with a large fitted effect; inconclusive = falling curve, mostly with a smaller effect; inactive = flat or rising curve; cell line not stated here;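 further: intracellular cAMP measured with PDE inhibitor Ro 20-1724 present during compound exposure; potency means the concentration at half of the fitted maximal effect; on the % scale 0 is the no-effect control and ±100 the full control effect; nearly all actives have a fitted effect of over 65% in size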
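G418-selected cells were plated in DMEM/10% FBS for 16-24 h at 37C, then treated with compounds plus the PDE inhibitor […] (300 uM solution added) for 30 min at 37C. Intracellular cAMP was measured by HTRF after 30 min lysis at room temperature.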
gsp ag: qHTS for Agonist of gsp, the Etiologic Mutation Responsible for Fibrous Dysplasia/McCune-Albright Syndrome: qHTS. 340,000 compounds, 0.13% hits. AID 624287, 2012. Potency, µM (top dose mostly 76.9 µM), without a hit: at the highest dose activation (cAMP increase), hits mostly activators. gsp mutant cells, cAMP HTRF, 30 min; control for the full effect not named in the record; active = well fitted activation curve with a large enough effect; inconclusive = small, poorly fitted or top-dose-only effect, or another doubt; inactive = no such curve, though single readings can be large or run the other way; cell line not stated here;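 further: phosphodiesterase inhibitor Ro 20-1724 added with compounds to block cAMP breakdown; potency means the concentration at half of the fitted maximal effect; nearly all actives have a fitted effect of over 60% in size; about a fifth of the inactives were tested at one dose only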
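Cells stably selected in G418 were plated at 2000/well, grown 16-24 hr, then given compounds in DMSO with the PDE inhibitor […] (300 uM solution added) for 30 min at 37C; cAMP was read by HTRF.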
Menin MLL FP FL: qHTS Assay for Inhibitors Targeting the Menin-MLL Interaction in MLL Related Leukemias: Competition With Fluorescein Labeled MLL-derived Peptide; AID 1766, 2009; FP activity change, % at 61.4 µM; Fluorescence polarization, fluorescein-MLL peptide displacement from menin; 290,000 tested, under 10 active; inconclusive = falling polarisation curve, or a change in total fluorescence; inactive = total fluorescence flat and polarisation flat or rising; no compound was filed as active; the % refers to the polarisation; negative = inhibition;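 further: % of control where 0% means no effect; inhibitors lower the polarisation; unlabelled MLL peptide was the positive control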
TRPV1 PAM: HTS Assay for Compounds that Act as Potentiators of the Vanilloid Receptor 1; Transient receptor potential cation channel subfamily V member 1 (Homo sapiens), Q8NER1; TRPV1-expressing cells, Fluo-8 calcium influx, capsaicin EC20 potentiation; host cell line not named in the record; control for the full effect not named in the record; potentiation, % at 8.33 µM; 320,000 compounds, 0.02% hits; AID 540277, 2011; active means potentiation above 80%; inconclusive means 30% to 80%; inactive means below 30%; further: 0% is about no effect
Target sequence (Q8NER1 whole entry, looked up): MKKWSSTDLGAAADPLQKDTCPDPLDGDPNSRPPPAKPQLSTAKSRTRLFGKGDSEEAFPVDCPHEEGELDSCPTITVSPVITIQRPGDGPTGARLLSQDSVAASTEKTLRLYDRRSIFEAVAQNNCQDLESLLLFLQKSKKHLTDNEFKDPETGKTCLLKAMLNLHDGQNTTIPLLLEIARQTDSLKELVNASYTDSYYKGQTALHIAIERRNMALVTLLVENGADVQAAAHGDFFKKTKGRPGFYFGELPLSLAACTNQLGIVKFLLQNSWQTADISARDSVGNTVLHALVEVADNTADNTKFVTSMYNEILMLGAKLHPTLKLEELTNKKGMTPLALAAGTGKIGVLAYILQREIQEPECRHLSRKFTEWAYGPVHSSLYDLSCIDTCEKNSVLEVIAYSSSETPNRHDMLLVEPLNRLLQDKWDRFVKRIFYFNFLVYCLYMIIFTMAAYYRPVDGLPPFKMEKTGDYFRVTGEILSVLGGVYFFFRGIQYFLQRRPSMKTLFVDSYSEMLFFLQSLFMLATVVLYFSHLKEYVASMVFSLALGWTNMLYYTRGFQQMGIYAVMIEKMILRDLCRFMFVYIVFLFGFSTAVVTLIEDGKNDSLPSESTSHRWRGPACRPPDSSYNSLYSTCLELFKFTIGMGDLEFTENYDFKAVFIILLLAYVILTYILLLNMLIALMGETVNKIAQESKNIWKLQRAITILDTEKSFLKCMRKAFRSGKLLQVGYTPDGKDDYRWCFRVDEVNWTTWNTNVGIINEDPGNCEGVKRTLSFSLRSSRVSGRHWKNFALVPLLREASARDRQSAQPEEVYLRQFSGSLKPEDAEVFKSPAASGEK
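TRPV1-expressing cells were cultured overnight at 35.5C and loaded with Fluo-8 calcium dye for 40 to 90 min at room temperature. After a 10 s baseline, compound was added and calcium influx was read kinetically for 3 min (ex 480/em 520 nm).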
ClpP mod: qHTS Assay for Activators of ClpP | ATP-dependent Clp protease proteolytic subunit (Bacillus subtilis (strain 168)), P80244 | purified B. subtilis ClpP, FRET peptide cleavage, 20 min | Potency, µM (top dose mostly 57.5 µM), for the others: top-dose activity change, negative = active | 340,000 compounds, 1.9% hits; active = well fitted falling curve with a large enough effect; inconclusive = small, poorly fitted or top-dose-only effect; inactive = no such curve, though single readings can be large or run the other way; further: potency means the concentration at half of the fitted maximal effect; the source files actives as falling curves though it sought activators and does not explain the sign; nearly all actives have a fitted effect of over 65% in size; many hits overshoot -100%
Target sequence (P80244 whole entry, looked up): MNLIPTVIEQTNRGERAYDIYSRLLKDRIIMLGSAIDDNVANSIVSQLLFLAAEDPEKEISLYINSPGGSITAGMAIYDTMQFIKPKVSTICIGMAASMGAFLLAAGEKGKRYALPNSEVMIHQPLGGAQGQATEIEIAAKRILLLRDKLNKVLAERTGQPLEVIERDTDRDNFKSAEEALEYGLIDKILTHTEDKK
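ClpP 10 microg/mL final, pH 8 Tris/KCl buffer with BSA, glycerol, Tween-20; compound pinned in; FRET-FV substrate; RT 20 min; Ex320/Em430; ΔFRET vs ADEP 5.8 microM, DMSO, no enzyme.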
Numbers without * were called inactive; ? = inconclusive; nt = not tested or not shown; & = joins results of further samples; [ ] = another dose, or the depositor's remark.

SMILES	TRPML1 inh	Sfp inh	gsp antag	gsp ag	Menin MLL FP FL	TRPV1 PAM	ClpP mod
c1ccc(-c2cn(CC3CCCCC3)nn2)cc1	11	6%	-8%	nt	9.4	18	0.7%&1.1%
Cc1ccc(CNC(=O)C2CC(c3ccc(C(F)(F)F)cc3)=NO2)o1 (centres undefined)	10	12%	3%	-6%	1.5	0	-0.5%
CN1CCC(N(C)S(=O)(=O)c2ccc(NC(=O)COc3cccc(C(F)(F)F)c3)cc2)CC1	4	nt	5%	-9%	nt	6	-4.6%
CCOC(=O)C1=C(C)Nc2nc3ccccc3n2C1c1ccccc1 (centres undefined)	-2	10%	-12%	-2%	4.5	14	35µM*
CCC(Oc1ccccc1)C(=O)NCCOC (centres undefined)	2	2%	6%	-16%	3.8	17	-1.9%
COc1cc(-c2nnc(NC(=O)CS(=O)(=O)c3ccc(C)cc3)o2)cc(OC)c1OC	-8	nt	0%	4%	nt	13	-1.1%
CCCCN1C(=O)N(C)C2NC(=S)NC21 (centres undefined)	15	-5%	10%	-15%	-4.4	-6	1.5%
C[C@H]1CN([C@@H](C)CO)S(=O)(=O)c2ccc(Br)cc2O[C@H]1CN(C)S(=O)(=O)c1ccccc1F	-4	nt	nt	-2%	nt	nt	1.5%
Cc1cc(C(=O)N/N=C/c2cccs2)no1	7	-8%	11%	-35%[inhibitor]	0.4	?	-0.2%
Cc1nc(CC(=O)O)c(-c2ccccc2)s1	-4	8%	6%	-8%	0.5	9	-1.4%
CC(=O)N1CCc2cc(NC(=O)c3ccc(C)cc3)ccc21	-4	3%	-1%	-7%	-0.5	-7	1.7%
CCC(Oc1ccccc1)C(=O)N(Cc1ccccc1)c1ccccn1 (centres undefined)	0	0%	?	?	1.5	-16	-2.6%
Cc1ccc(C2CC(c3ccccc3OC(F)F)Nc3ncnn32)cc1 (centres undefined)	-7	19%	-6%	5%	0.1	9	-0.8%
COC(=O)c1ccc(CSc2ccc(S(=O)(=O)N3CCCCC3)cn2)cc1	-24	nt	-6%	-12%	nt	16	1.0%
CC(=O)N(C1=C(Cl)C(=O)c2ccccc2C1=O)c1ccc(C(=O)O)cc1	-13	1µM*	50µM*	?	?	8	nt
Cn1c(=O)c2c(nc(N3CCN(c4ccccn4)CC3)n2Cc2ccc(Cl)cc2Cl)n(C)c1=O	-3	6%	6%	-3%	1.0	-8	-3.7%
Cc1n[nH]c(C)c1CCc1nc2c3ccccc3nc(SCC(N)=O)n2n1	19	12%	2%	-44%[inhibitor]	-0.1	-1	-1.0%
Cc1cccc(NCc2ccc(O)c3ncccc23)c1C	9	27%	-3%	-27%	-9.5	-1	nt
O=C(N/N=C\c1cn(-c2ccccc2)nc1-c1ccccc1)c1ccc2c(c1)OCO2	-2	7%	?	?	7.6	0	-21%
Cc1cccc(/C=C2\CS/C(=C\c3cccc(C)c3)C2=O)c1	0	-7%	3%	-36%[inhibitor]	-2.7	-22	0.4%
Cc1nc(SCC(=O)c2ccccc2)n[nH]1	-5	56µM*	16%	-4%	-1.0	-17	-0.4%
O=c1[nH]c(C2CCCN(S(=O)(=O)c3ccccc3)C2)nc2c1nnn2Cc1ccccc1Br (centres undefined)	22&28	3%	1%	2%	-0.8	?	-3.8%&0.2%
O=C(Nc1ccc(NC(=O)c2cccnc2Cl)cc1)c1cccc(Cl)c1	18	11%	-2%	-7%[15.4 µM]	2.9	-4	nt
O=C(c1cccc(F)c1)N1CCN(c2ccc([N+](=O)[O-])c3cccnc23)CC1	17	2%	40µM*	-16%[15.4 µM]	0.5	-12	1.0%

Whole records, looked up by structure.
COc1cc(-c2nnc(NC(=O)CS(=O)(=O)c3ccc(C)cc3)o2)cc(OC)c1OC is listed as TRPML1 inh: -8; Sfp inh: nt; gsp antag: 0%; gsp ag: 4%; Menin MLL FP FL: nt; TRPV1 PAM: 13; ClpP mod: -1.1%
CCC(Oc1ccccc1)C(=O)NCCOC (centres undefined) is listed as TRPML1 inh: 2; Sfp inh: 2%; gsp antag: 6%; gsp ag: -16%; Menin MLL FP FL: 3.8; TRPV1 PAM: 17; ClpP mod: -1.9%

Later entries.
SMILES	TRPML1 inh	Sfp inh	gsp antag	gsp ag	Menin MLL FP FL	TRPV1 PAM	ClpP mod
Cc1cc(C(=O)Nc2c(F)cc(F)cc2Br)c(C)o1	0	-23%	0%	-21%	2.4	-15	-1.2%
CS(=O)(=O)Nc1ccccc1C(=O)NCc1ccccc1Cl	-3	-6%	4%	?	-3.2	10	nt
CC1CC(=O)C2=C(C1)Nc1ncnn1C2c1ccccc1 (centres undefined)	0	-4%	8%	0%	5.2	3	-6.1%
Cc1ccc(NC(=S)N(Cc2cccs2)Cc2cc3cccc(C)c3[nH]c2=O)cc1	0	25%	3%	-12%	3.2	6	-1.2%
NC(=S)N/N=C/c1ccccc1OCc1cccc(Cl)c1	10	12%	-14%	7%	2.3	24	-3.3%
CCOCCCNCc1cc(Br)ccc1OCc1ccccc1	11	?	4%	6%	-0.7	-16	-1.6%
CCN(CC(=O)Nc1ccc2c(c1)OCCO2)S(=O)(=O)c1ccc(F)cc1	-13	6%	4%	2%	0.6	-2	nt
O=C(Cn1cc(C(=O)C2CCCCC2)c2ccccc21)NCC1CCCO1 (centres undefined)	-10	3%	-24%	17%[15.4 µM]	-0.3	5	0.1%
CN(CC(=O)Nc1ccccc1Br)C(=O)CNC(=O)c1cccs1	-16	nt	7%	-23%	nt	-2	-1.7%
NS(=O)(=O)c1cccc(NC(=S)NC(=O)c2cccc([N+](=O)[O-])c2)c1	13	50µM*	-9%	10%[15.4 µM]	-0.4	7	-1.2%
O=S1(=O)N=C(N/N=C/c2ccco2)c2ccccc21	14	-22%	1%	-5%[15.4 µM]	-2.1	4	nt
O=C(N/N=C/c1cccs1)c1ccc(-n2cccc2)cc1	3	-7%	-2%	0%	-0.1	-4	nt
O=C1C(=O)c2c(ccc3ccccc23)-c2ccccc21	2	nt	8%	0%	nt	nt	nt
CCc1noc(C)c1C(=O)Nc1nc(-c2cccs2)cs1	2	nt	-14%	38%[15.4 µM]	nt	8	nt
Cc1c2cnn(CC(=O)NCCCN3CCCCC3C)c(=O)c2c(C)n1Cc1ccccc1 (centres undefined)	-8	4%	5%	?	?	16	-15%
CN(CC(=O)NCc1cccs1)CC(=O)Nc1ccc(F)c(F)c1F	17	-3%	13%	?	nt	0	-0.4%
O=C(c1cc(COc2c(F)cccc2F)on1)N1CCN(C2CCCCC2)C(=O)C1	-4	11%	3%	20%	-6.5	11	nt
Cc1ccc(S(=O)(=O)N(C)CCCC(=O)Nc2ccncc2)cc1	7	11%	-3%	-40%[inhibitor]	4.6	2	-2.5%
COc1cccc(-c2nc(-c3ccc(Br)o3)no2)c1	5&-8	13%	-3%	-26%	3.0	-2	-1.8%
COc1cc(OC)c(OC)cc1/C=N/NC(=O)c1ccc(=O)n(C)c1	-27	11%	-12%	16%	-3.6	-5	-19%
CNC(=O)CSc1nc2ccccc2c(=O)n1-c1cc(OC)ccc1OC	-2	5%	6%	1%	-1.7	-5	-1.5%
CC(C)Cn1c(N)c(C(=O)COC(=O)c2ccc(F)cc2)c(=O)n(C)c1=O	29	6%	-18%	31%	0.6	1	nt
O=C(O)c1cn(-c2ccc(F)c(F)c2)c2c(F)c(F)c(F)c(F)c2c1=O	11	15%	-20%	10%	-0.1	7	-1.0%
O=C(CNc1ccc(Br)cc1)Nc1cccc(S(=O)(=O)N2CCCC2)c1	9	nt	-8%	-21%	nt	29	1.3%
Cc1ccc(-c2ccc(/C=N/NC(=O)CN3CCOCC3)o2)cc1[N+](=O)[O-]	-15	50µM*	0%	3%	-1.1	?	nt
COC(=O)C1=C(C)NC(=O)CC1c1ccc(C(=O)OC)cc1 (centres undefined)	0	7%	-3%	0%	0.3	11	0.1%
COc1ccc(-c2nc(CN3CCN(Cc4cccc(Cl)c4)CC3)c(C)o2)cc1	-6	2%	-1%	-9%	1.5	19	-1.5%
Cc1ccc(C)n1-c1nccc(-c2ccco2)n1	-7	-16%	5%	12%	0.0	12	nt
COCc1cc(=O)[nH]c(/N=C(\N)Nc2ccc(Oc3ccccc3)cc2)n1	7	-9%	-1%	5%	-0.8	-1	-1.9%
O=C(CNC(=O)c1ccc(-c2ccccc2)cc1)Nc1cccc(CO)c1	-5	nt	18%	-14%	nt	nt	nt
O=C1C2C3c4ccccc4C(c4ccccc43)C2C(=O)N1Cc1ccco1 (centres undefined)	-11	45µM*	4%	?	2.5	-5	1.6%
COc1ccc(N=Nc2ccc(O)c3ncccc23)cc1	-5	14%	-2%	0%	-2.1	-8	1.2%
O=S(=O)(c1ccccc1)c1nnn2c1nc(NC1CCN(Cc3ccccc3)CC1)c1ccccc12	-1	7%	-2%	11%	-0.5	-14	3.9%
O=C(NNS(=O)(=O)c1cc(Cl)cc(Cl)c1)c1sccc1-n1cccc1	7	3%	-11%	-1%	2.5	nt	1.5%
CCCn1c(SCC(=O)Nc2cc(S(=O)(=O)N3CCOCC3)ccc2OC)n[nH]c1=O	8	40µM*	3%	-33%[inhibitor]	5.6	8	3.2%
CCN1CCCC1CNC(=O)c1cc(S(=O)(=O)N(C)C)ccc1Cl (centres undefined)	34	14%	8%	2%	-1.2	3	nt
O=C(NCc1ccncc1)C(=O)NCc1ccco1	-5	8%	12%	-46%[inhibitor]	-0.6	-1	-2.1%
